Screens as filed in PubChem BioAssay.
PMP22 txn = modulates PMP22 transcription in S16 Schwann cells; 43,000 tested, 2% active; Potency, µM (series often up to 57.5 µM), without a hit: at the highest dose activity change, negative = inhibition, usual class: inhibitors; S16 Pmp22-F2sN Schwann cells (luciferase reporters placed in the Pmp22 gene), FLuc/NLuc coincidence luminescence, 24 h; AID 1508649; active = clear falling dose curves in both reporters; inconclusive = both reporters move, but less clearly or upward; inactive = either reporter flat; the % is the NLuc reporter signal; further: on the % scale 0 is the no-effect control and ±100 the full control effect; some results filed as inactive show a strong effect at the top dose
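Schwann cells carrying the coincidence reporter were exposed to library compounds for 24 h at 37C, then lysed and read for FLuc and, after quenching, NLuc luminescence on a CCD imager.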
HTT promoter inh = inhibitors of huntingtin promoter activity. 48,000 tested, 0.93% active. HEK293 HTT promoter firefly luciferase reporter (activity 0% = vehicle and -100% = no light), 24 h. Potency, µM (highest dose often 57.5 µM), for inactives: at the highest dose activity change, negative = inhibition, actives largely listed as inhibitors. AID 1508623; active means well fitted inhibition curve with a large enough effect; inconclusive means small, poorly fitted or top-dose-only effect; inactive means no such curve, though single readings can be large or run the other way; further: nearly all actives have a fitted effect of over 50% in size
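HEK293 Fluc reporter, 2,500 cells/well, 24 h pre-culture; cpds up to 57.5 uM final, 24 h 37 degrees C; Dual-Glo, 10 min RT; normalized vehicle = 0%, zero RLU = -100%.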
Active calls of the source: *; ? = inconclusive; . = not tested or not shown; & = joins results of further samples; [ ] = remark or other dose. Potency means the concentration at half of the fitted maximal effect.

mol	PMP22 txn	HTT promoter inh
CCC(C)c1ccc(OCC(=O)Nc2cccc3ccc(C)nc23)cc1 (stereo unspecified)	10%	-17%
CCOc1ccccc1CNCCNC(=O)c1nonc1N	-21%	-7%
Cc1ccccc1C(=O)Nc1cccc(C(=O)OCc2cc(=O)n3c(C)csc3n2)c1	-40%	?
N#C/C(=C\c1ccc(O)cc1)C(=O)NCC1CCCO1 (stereo unspecified)	-18%	20%
COC(=O)c1ccc(-n2c(/C=C\c3cccc(Br)c3)nc3ccccc3c2=O)cc1	-16%	?
COc1ccc(NC(=O)C2CCCN(S(=O)(=O)c3c(C)n[nH]c3C)C2)cc1OC (stereo unspecified)	-17%	-28%
COc1ccc(NC(=O)C(Cc2ccccc2)NS(=O)(=O)c2ccc(Br)s2)cc1OC (stereo unspecified)	4%	10%
CCOC(=O)CC(NC(=O)CCc1c(C)nc2ncnn2c1C)c1ccc(C)cc1 (stereo unspecified)	0%	-3%
Cc1ccc(CNC(=O)c2nc(SCc3ccccc3F)ncc2Cl)cc1	-5%	-21%
O=C(Nc1cccc(C(F)(F)F)c1)Nc1nnc(N2CCCCC2)s1	0%	3%
O=c1[nH]nc(Sc2ncc([N+](=O)[O-])s2)n1-c1ccc2c(c1)OCCO2	.	?
O=C(NCc1ccccc1Cl)c1cccn1-c1nnc(N2CCCCC2)s1	-13%	-26%
CCc1ccc(C(=O)c2cn(CC(=O)Nc3ccc(F)cc3)c3ccc(F)cc3c2=O)cc1	?	-28%
CCN(CCN(C)C)C(=O)Cn1ncc2c([nH]c3ccc(C)cc32)c1=O	-36%	7%
COc1ccc(-c2nnc(SCC(=O)NC3CCCCC3)nc2-c2ccc(OC)cc2)cc1	?	-10%

Of the compounds above, two have two or more sulfur atoms:
mol	PMP22 txn	HTT promoter inh
COc1ccc(NC(=O)C(Cc2ccccc2)NS(=O)(=O)c2ccc(Br)s2)cc1OC (stereo unspecified)	4%	10%
O=c1[nH]nc(Sc2ncc([N+](=O)[O-])s2)n1-c1ccc2c(c1)OCCO2	.	?

The listing continues:
mol	PMP22 txn	HTT promoter inh
COc1ccc(NC(=O)c2cnn(-c3ccc(C)c(C)c3)c2C2CCNCC2)cc1OC	-5%	-4%
Cc1cccc(-n2c(=O)c3c(c4cc(C)ccc4n3C)n(CC(=O)Nc3ccccc3C(F)(F)F)c2=O)c1	2%	-13%
CCCN1CCN(CCNC(=O)Nc2ccccc2OCC)CC1	-12%	-5%
Cc1ccc2oc3c(c(=O)c2c1)C(c1ccc([N+](=O)[O-])cc1)N(CCCN1CCOCC1)C3=O (stereo unspecified)	-17%	-7%
COc1ccc(-c2n[nH]c3c2C(c2ccccn2)N(C)C3=O)cc1 (stereo unspecified)	-16%	-5%
CCn1c(COc2ccc(Cl)cc2Cl)nc2ccccc21	-26%	42%[activator]
COc1cc(/C=C(\C#N)c2nc3ccc(C)cc3[nH]2)ccc1OCc1ccc(C)cc1	?	?
CCOc1sc2nc(C)n(CC(=O)Nc3cccc(C)c3)c(=O)c2c1C	-2%	0%
COc1ccc(NC(=O)c2sc3nc[nH]c(=O)c3c2C)cc1Cl	-25%	33%[activator]
CCOc1ccc(CNC(=O)CN2C(=O)CCn3nc(-c4cn(C)c5ccccc45)cc32)cc1OC	7%	-1%
COc1cccc(CNC(=O)c2cc3c(=O)n(Cc4cccnc4)ccc3nc2C)c1	-24%	-30%
COc1ccc(CCNc2ncnc3c2cnn3-c2ccc(F)cc2)cc1	-22%	-6%
COc1cccc(C(=O)NC(c2ccc(Cl)cc2)c2cc(Cl)c3cccnc3c2O)c1 (stereo unspecified)	4.6µM*	?
Cc1c(C(=O)N(Cc2ccc(N(C)C)cc2)CC2CCCO2)oc2ccccc12 (stereo unspecified)	13%	-1%
Cc1noc2ncnc(N3CCCC(C(=O)Nc4cc(F)ccc4F)C3)c12 (stereo unspecified)	?	?

Continued:
mol	PMP22 txn	HTT promoter inh
COc1ccc(Cn2c(SCc3ccc(C(=O)NC4CCCCC4)cc3)nc3cccnc32)cc1	-63%	?
COc1ccc(NC(=O)CNC(=O)Cn2ccc3ccccc3c2=O)cc1OC	-12%	-9%
CCC1CN(S(=O)(=O)c2cc(-c3cc(C)no3)ccc2OC)c2cc(C)ccc2O1 (stereo unspecified)	?	?
CCCCN(C)C(=O)CN1C(=O)c2cccnc2Oc2ccc(Cl)cc21	-3%	4%
Cc1ccccc1C(=O)Nc1ccc2c(c1)CCCN2C(=O)c1cccs1	-4%	-28%
CCn1nnc2cc(C(=O)Nc3cccc(C)c3C)ccc21	-19%	1%
CCn1c(CN2CCC(C)CC2)nc2cc(NC(=O)COc3ccc(Cl)c(C)c3)ccc21	-54%	?
COc1ccc(Nc2nc(N)nc(N)c2S(=O)(=O)c2ccccc2)cc1	?	-24%
CCc1ccc(Nc2nc(-c3cc4cccc(OC)c4oc3=O)c(CC)s2)cc1	-160%	2%
COc1cc(C2C(C(=O)Nc3ccc(C)cc3C)=C(C)Nc3nc4ccccc4n32)cc(OC)c1OC (stereo unspecified)	4%	-3%
CCCCC(CC)COC(=O)C(C#N)=C(c1ccccc1)c1ccccc1 (stereo unspecified)	.	-23%&-14%
COc1ccc(OC)c(NC(=O)CSc2cn(CC(=O)N3CCOCC3)c3ccccc23)c1	-1%	-4%
CCCNC(=O)c1ccc2c(c1)sc1nc(-c3ccc(C)cc3)cn12	-29%	4%
COC(=O)c1ccccc1NC(=O)c1c(C)oc2ncn(C)c(=O)c12	-16%	-5%
Cc1sc2ncn(CC(=O)Nc3ccc(F)cc3F)c(=O)c2c1S(=O)(=O)N1CCC(C)CC1	-6%	-28%

Next part:
mol,PMP22 txn,HTT promoter inh
Cc1cccc(C(=O)Nc2nc3nc(-c4ccccc4)cc(=O)n3[nH]2)c1,-123%,-15%
Cc1ccc(CCNC(=O)C2CCN(c3nnc(-n4cccc4CNc4ccc(C)cc4)s3)CC2)cc1,20µM*,?
Cc1ccc(C2CC(=O)Nc3cc4c(cc32)OCCO4)cc1Br (stereo unspecified),?,25µM*
CCc1nc2cccnc2n1-c1ccc(CC(=O)Nc2c(C)cccc2C)cc1,-11%,-15%
O=C(Cc1ccc(F)cc1)NC1CC(=O)N(c2ccccc2)C1 (stereo unspecified),59%,-16%
COc1ccc(CNC(=O)CC2N=C3c4ccccc4N=C(SCC(=O)Nc4ccc(C(C)C)cc4)N3C2=O)cc1 (stereo unspecified),-21%,3%
Cc1ccc(C)c(N2CCN(C(=O)Nc3cn(CC(C)C)c(=O)c4ccccc34)CC2)c1,-8%,?
Cc1cc(C)cc(-n2ccn(CC(=O)c3ccc(F)cc3)c(=O)c2=O)c1,-15%,-17%
O=C(CCn1cnc2ccccc2c1=O)NCc1ccccc1Cl,-28%,-11%
COc1ccc(-c2nc3ccccc3s2)cc1NC(=O)COc1ccc(C)cc1,?,72%[activator]
Cc1ccc(C)c(N2CCN(CCCNC(=O)Cn3ncc4c([nH]c5ccccc54)c3=O)CC2)c1,?,-2%
COc1ccc(-c2cc(=O)c3cc(OCC(=O)OC(C)C)ccc3o2)cc1,-4%,-12%
Cc1ccc(CN(C(=O)COc2ccccc2Cl)c2ccccn2)o1,-3%,38%[activator]
O=C(CCCN1CCN(c2ccc(F)cc2)CC1)NC1c2ccccc2CSc2ccccc21 (stereo unspecified),.,?
O=C(Nc1ccc(F)c(Cl)c1)Nc1c[nH]c(=O)[nH]c1=O,-6%,10%
Cc1ccc(C)c(Oc2c(C(F)(F)F)oc3c(CN4CCN(C)CC4)c(O)ccc3c2=O)c1,11%,-13%
CCOC(=O)c1c(NC(=O)c2cc(C(C)C)on2)sc(C)c1C,-4%,8%
O=C(COc1ccccc1)NCCc1csc(-c2cccc(F)c2)n1,-9%,-5%
CCN(C(=O)Cn1nnc2sc(-c3ccccc3)cc2c1=O)c1cccc(C)c1,-5%,-2%
CCOc1ccc(NC(=O)CSc2nc3c(c(=O)[nH]2)CCCC3)cc1,-10%,-6%
CCOC(=O)CSc1nc2sc3c(c2c(=O)n1Cc1ccccc1)CC(C)CC3 (stereo unspecified),-2%,-2%
Cc1ccc(-c2ccc(CCC(=O)O)n2-c2cccc(O)c2)cc1,?,9%
COC(=O)C1=C(C)NC(C)=C(C(=O)OCC(C)C)C1c1ccccc1[N+](=O)[O-] (stereo unspecified),.,-23%
COc1cc(NC(=O)c2ccc3c(Cl)c4c(nc3c2)CCC4)cc(OC)c1OC,-15%,-14%
Cc1cccc(-n2ncc(C(=O)N3CCN(Cc4ccccc4)CC3)c2C2CCN(C(=O)OC(C)(C)C)CC2)c1,?,?

Entries shown so far with a nitro group on carbon (3):
mol,PMP22 txn,HTT promoter inh
O=c1[nH]nc(Sc2ncc([N+](=O)[O-])s2)n1-c1ccc2c(c1)OCCO2,.,?
Cc1ccc2oc3c(c(=O)c2c1)C(c1ccc([N+](=O)[O-])cc1)N(CCCN1CCOCC1)C3=O (stereo unspecified),-17%,-7%
COC(=O)C1=C(C)NC(C)=C(C(=O)OCC(C)C)C1c1ccccc1[N+](=O)[O-] (stereo unspecified),.,-23%

Further results.
mol,PMP22 txn,HTT promoter inh
Cc1ccc(Nc2nccc(N(C)c3ccc4c(C)n(C)nc4c3)n2)cc1S(N)(=O)=O,.,-1%&-17%
COc1ccc(OC)c(CNC(=O)c2ccc(C)c(NC(=O)c3nsc4ccccc34)c2)c1,?,13%
CC(C)CCNC(=O)C1CCC(CNS(=O)(=O)c2cccc3nsnc23)CC1 (stereo unspecified),-17%,-8%[11.5 µM]
COc1ccc(C(=O)CN2C(=O)N(c3ccc(C(C)=O)cc3)S(=O)(=O)c3ccccc32)cc1,7%,-21%
O=C(Cn1c(-c2cccs2)cc2cc(F)ccc21)NCCCN1CCN(c2ccccc2F)CC1,?,?
COc1ccc(N2C(=O)CSC23C(=O)N(Cc2cccc(C(F)(F)F)c2)c2ccccc23)cc1 (stereo unspecified),?,?
CCOC(=O)c1c(C)oc2nc(C)nc(NCCCN3CCN(c4ccccc4)CC3)c12,9%,-12%
CCOC(=O)c1c(NC(=O)c2cc(-c3cccc(Cl)c3)on2)sc(C(C)=O)c1C,-23%,-3%
COC(=O)c1ccc(O)c2ncc(-c3ccc(C(=O)N4CCN(C)CC4)cc3)cc12,.,-17%
COc1cc(OC)c(NC(=O)CCn2cccn2)cc1Cl,?,10%
Cc1ccccc1C(=O)n1nc(-c2ccco2)nc1NCc1cccs1,-81%,-5%
COc1cccc(C(=O)Nc2ccccc2OCc2cc(=O)n3cc(C)ccc3n2)c1,-3%,0%
COc1cccc(OC)c1C(=O)Nc1ccc(S(=O)(=O)Nc2nccc(C)n2)cc1,10%,-3%
COc1ccc(OC)c(CCNc2ncnc3onc(-c4ccc(F)cc4)c23)c1,-50%,-34%
CCOc1ccc2nc(NC(=O)c3nc(SC(C)C)ncc3Cl)sc2c1,18µM*,-15%
O=C1OC2(c3ccccc31)c1cc(Br)c(O)c(Br)c1Oc1c2cc(Br)c(O)c1Br,.,2%
COc1ccc(CCNC(=O)C(=O)NCC(c2cccnc2)N2CCN(c3ccccc3)CC2)cc1 (stereo unspecified),?,13µM*
CCOC(=O)c1ccccc1NC(=O)c1sc2ncn(CC)c(=O)c2c1C,-1%,-4%
COc1ccc(NC(=O)Cn2c(=O)n(Cc3nc(-c4ccccc4)no3)c(=O)c3ccccc32)cc1Cl,?,-29%
CCOC(=O)c1c(-c2ccc(OC)c(OC)c2)csc1NC(=O)c1ccc(C)cc1,-14%,-1%
COc1cccc(CSc2nc3cc(C(=O)NC4CCCC4)ccc3c(=O)n2Cc2ccccc2)c1,-19%,1%
COc1ccc(OC)c(NS(=O)(=O)c2ccc(-n3cccn3)cc2)c1,?,?
CCOCCCNC(=O)c1ccc2c(c1)NC(=O)C(CS(=O)(=O)Cc1ccc(F)cc1Cl)N2 (stereo unspecified),-6%,-20%
COC(=O)c1c(C)nn(-c2ccc(F)cc2)c1-n1cccc1,-15%,?
COc1ccc(CCN(C)CCCC(C#N)(c2cc(OC)c(OC)c(OC)c2)C(C)C)cc1OC (stereo unspecified),.,-10%

More structures follow.
mol,PMP22 txn,HTT promoter inh
CCOC(=O)C1CCN(C(=O)CSc2n[nH]c(-c3ccccc3Cl)n2)CC1,-13%,2%
Cc1cccc(N2CCN(C(=O)Cn3ncc4c([nH]c5ccccc54)c3=O)CC2C)c1 (stereo unspecified),?,8%
O=C(NCc1ccco1)c1ccc2c(c1)N(Cc1ccc(F)cc1)C(=O)c1ccccc1S2(=O)=O,-3%,?
COc1ccc(C(=O)N(Cc2ccc(C(C)C)cc2)C2CCS(=O)(=O)C2)cc1 (stereo unspecified),17%,-29%
CCOc1ccccc1NC(=O)Cn1c(=O)n(-c2ccc(F)cc2)c(=O)c2c3c(sc21)CN(C(C)=O)CC3,-38%,-6%

An excerpt from the list above, for reference:
mol,PMP22 txn,HTT promoter inh
COc1ccc(CCN(C)CCCC(C#N)(c2cc(OC)c(OC)c(OC)c2)C(C)C)cc1OC (stereo unspecified),.,-10%
CCOC(=O)C1CCN(C(=O)CSc2n[nH]c(-c3ccccc3Cl)n2)CC1,-13%,2%
Cc1cccc(N2CCN(C(=O)Cn3ncc4c([nH]c5ccccc54)c3=O)CC2C)c1 (stereo unspecified),?,8%

Hits appear at their usual frequency, and some 2.7% of all compounds hit somewhere here.
